Screening data deposited in PubChem by several laboratories.
PrP UTR inh = suppresses PrP 5' UTR mRNA reporter expression; cell-based PrP 5' UTR mRNA reporter, plate reader; 340,000 compounds, 0.35% hits; inhibition, % (concentration not given with the values); AID 488862;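 active = every replicate at 50% or more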;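 also: 0 = median of the neutral control wells; tested in H4 reporter cells; numbers are from one replicate; inactives centre near -14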
Sa RN4220 lethal = S. aureus RN4220 growth inhibition; OD600, 16 h; inhibition, % (concentration not given with the values); 330,000 compounds, 0.33% hits; AID 1259311;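 active = z-score of -3 or lower and OD600 up to 0.18 on both plates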;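 also: plate controls were untreated cells for no effect and reference antibiotic for full effect; stock transfer was 100 nL into about 80 µL; one replicate is shown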
Mtb hypoxia inh = inhibitors of hypoxia-regulated fluorescent reporter in Mycobacterium tuberculosis; fluorescence inhibition, % (test concentration not listed); M. tuberculosis hypoxia-regulated fluorescent reporter, fluorescence; 300,000 compounds, 0.1% hits;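 active = 35 to 45% if threefold the growth effect, above 45% if 1.5-fold the growth effect; inactive = the rest, general growth blockers included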;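 also: wells of about 50 µL received 100 nL stock; 0% = vehicle wells and 100% = reference inhibitor wells; whole bacteria with a GFP reporter of the hypoxia response; strong numbers were not always called active; many hits fall short of the cut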
BJeLR lethal = kills HRASV12-expressing BJeLR cells | AID 1554 | 300,000 compounds, 0.17% hits | inhibition, % (no concentration beside the values) | BJeLR (HRASV12) viability, CellTiter-Glo ATP luminescence, 48 h; reference of the scale not given here;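 active = replicate mean above 50%; inconclusive = above 50% but judged a plate artefact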;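 also: 50 nL library stock added to about 25 µL; numbers are from one replicate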
ugtP null kill = growth inhibition of S. aureus ugtP deletion strain; S. aureus RN4220 ugtP deletion, OD600 growth, 16 h; some inactives read as strong as hits; growth inhibition, % (no concentration beside the values); 330,000 compounds, 0.54% hits; AID 1259309;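 active = z-score under -3 and OD600 up to 0.15 on both plates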;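 also: plate controls were untreated wells for no effect and antibiotic for full effect; wells of about 80 µL received 100 nL stock; the first replicate is given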
Autofluor counter = compound fluorescence in toxin protease inhibitor counterscreen. compound autofluorescence counterscreen, microsphere flow cytometry; hits give high values. fluorescence intensity (no concentration beside the values). 360,000 compounds, 3.1% hits;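 active = at least 3 SD above the mean of all compounds, about 16000 in these data; inconclusive = too few beads counted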;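 also: 100 nL of 1 mM stock went into each well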
Mtb hypoxia inh growth = further read-out of Mtb hypoxia inh, marked with its call; growth inhibition, %; measured here: M. tuberculosis growth (absorbance);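 0% = vehicle and 100% = reference antibiotic; read after six days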
Starred values were filed as active, the others as inactive; ? = inconclusive; . = no result given. No enrichment for hits. Share with any hit: about 3.9%.

Sequence of screens – PrP UTR inh, Sa RN4220 lethal, Mtb hypoxia inh, Mtb hypoxia inh growth, BJeLR lethal, ugtP null kill, Autofluor counter
Cc1ccc(C)c(OCCC(=O)NNC(=O)c2ccccc2)c1
→ -7, 3.3, 4, -3, -7, 7, 3952
C=CCNC(=S)Nc1ccc(C(N)=O)cc1
→ -5, 2.2, 7, 0, 3, 5, 5888
Cc1cc(NC(=O)c2cccnc2)ccc1NC(=O)c1ccco1
→ -6, 6.1, 9, 16, 10, 8, 22536*
COc1cc(-c2nnc(SCc3c(F)cccc3Cl)o2)cc(OC)c1OC
→ -15, -0.6, 4, 6, 0, -5, 3036
O=C(Nc1ccc(F)cc1)c1ccccc1NC(=O)C1CC=CCC1C(=O)O (stereo not given)
→ -14, 3.8, 4, 12, ., 5, ?
O=C1C(=O)N(CCN2CCOCC2)C(c2ccc(F)cc2)/C1=C(/O)c1ccc(S(=O)(=O)N2CCOCC2)cc1 (stereo not given)
→ -11, 0.3, -2, 12, -6, -3, 3551
COc1ccc([N+](=O)[O-])cc1NC(=O)C1CCCO1 (stereo not given)
→ -16, 0.4, -5, 13, -10, 2, 2108
Cc1ccc2ccccc2c1COC(=O)c1nonc1N
→ -28, 1.6, -5, -7, -4, 6, 9979
Cc1nn(-c2ccc(N3CCOCC3)nn2)c(C)c1CCC(=O)NCc1ccc(F)cc1
→ -18, -1.7, 2, -3, 13, 7, 5319
O=C(NNC(=O)c1cccc([N+](=O)[O-])c1)c1ccncc1
→ -20, 4.4, 10, 2, -5, -1, 4632
CCc1ccc(NC(=O)c2ccc(NC3=NC4CS(=O)(=O)CC4S3)cc2)cc1 (stereo not given)
→ -25, 2.2, -2, 1, -1, -2, 5714
CCn1cc(C(=O)N[C@H](C(=O)NC(C)(C)CO)C(C)C)c(=O)c2cc3c(cc21)OCO3
→ -22, 5.0, 4, 3, 2, 6, 3924
CC(C)(C)n1cnc2cc(NS(=O)(=O)c3ccccc3)ccc21
→ -26, 2.6, ., ., -5, -3, 2776
Cc1c(C)c(C)c2[nH]c(=S)[nH]c2c1C
→ -5, 0.8, 14, 7, -3, 9, .
C=C(C)C1CC=C(C)/C(=N/NC(=O)COc2ccc(Cl)cc2)C1 (stereo not given)
→ -7, ., ., ., -11, ., 2503
CC(CCc1ccccc1)NC(=O)COC(=O)c1cccn1C (stereo not given)
→ -13, 5.3, 7, 8, ., 3, .
CCn1c(=O)n(CC)c2cc(S(N)(=O)=O)c(C)cc21
→ -9, 1.5, 11, 1, 1, 8, 7485
Cc1cc(C)n2nc(C(=O)NN=Cc3ccc(Cl)cc3)nc2n1
→ ., 2.3, -7, 0, ., 4, .
CCCOc1ccc(/C=C/c2c([N+](=O)[O-])c(=O)n(C)c(=O)n2C)cc1
→ -10, 3.7, 7, 19, 7, 5, 4246
Cn1cc(CC(=O)N2CCN(c3ccc(Cl)cc3)CC2)c2ccccc21
→ 1, -6.9, ., ., 0, -3, 2678
CCOC(=O)C1CCN(S(=O)(=O)c2c(C)[nH]c(C)c2C(=O)N2CCCC2)CC1
→ -11, -0.6, -4, -4, 2, -1, 5011
COC(=O)c1c(NC(=O)CN2CCC3(O)CCCCC3C2c2cc(OC)ccc2OC)sc(C)c1C (stereo not given)
→ -13, 1.8, 1, 4, -4, -18, 2118
O=C(CN1C(=O)c2ccccc2S1(=O)=O)Nc1ccccc1C(=O)NCc1ccco1
→ -5, -0.6, ., ., -1, -3, 4792
Cc1ccc(C=NNC(=S)NC2CCS(=O)(=O)C2)cc1 (stereo not given)
→ ., 4.1, 2, 11, ., 0, .
Cc1cccc(NC(=O)c2nc[nH]c2C(=O)NC(CC(C)C)C(=O)OC(C)(C)C)c1 (stereo not given)
→ ., -15, 1, 15, ., -1, .
Cc1cccc(OCC(=O)NCCNC(=O)c2ccco2)c1
→ -56, 2.5, -10, -8, 3, 5, 5693
Cc1ccc(C(=O)O)cc1NC(=O)c1cccs1
→ -13, 3.4, 1, 4, 4, -1, 5268
O=c1nc2n(c3cc(Cl)c(S(=O)(=O)N4CCOCC4)cc13)CCCCC2
→ 1, -11, 7, 8, 4, -3, 3026
S=C(N/N=C/c1ccc(Cl)cc1)N1CCOCC1
→ -31, ., ., ., -5, ., 3422
C=CCn1c(SCC(=O)NC2CCCCC2)nc2ccccc2c1=O
→ -24, 2.0, -8, -6, -2, 3, 3725
O=C(CN1C(=O)NC2(CCOc3ccccc32)C1=O)c1ccc(Cl)cc1 (stereo not given)
→ -30, 5.6, -2, -2, 0, 2, 5220
CC(C)C(=O)Nc1ccc(C(=O)NC2CCSC2=O)cc1 (stereo not given)
→ -6, 6.3, 3, 1, -2, 12, 16074
Cc1cccc(C)c1NC(=O)CN(C)C(=O)CC1Sc2ccccc2NC1=O (stereo not given)
→ 3, 3.6, -1, -6, 0, 0, ?
COc1ccc(C(=O)NCCCOc2cccc(NC(C)=O)c2)cc1
→ -15, 4.1, -5, 1, -13, 9, .
CC1CCN(C(=O)CSc2nnc(Cc3cc(=O)[nH]c(=O)[nH]3)n2-c2ccc(Cl)cc2)CC1
→ -2, -4.6, ., ., -2, -2, 6065
COC(=O)N(C)c1nc2ccccc2s1
→ -40, 7.6, 11, 15, 1, -5, 2532
CC1CCN(S(=O)(=O)N2CCC(C(=O)NCCC3=CCCCC3)CC2)CC1
→ -15, 3.7, 13, 7, 3, 2, 3524
O=C(Nc1cccnc1)C1CCN(S(=O)(=O)c2ccc(Cl)cc2)CC1
→ -10, -0.1, -3, 0, 9, 5, 5499
CC(/C=C/C=C/c1ccccc1)=NNC(=O)CNc1ccc(C)cc1
→ ., 0.9, 0, -2, ., -3, .
CCOC(=O)c1c(C)[nH]c(C(=O)COC(=O)CCSc2ccccc2)c1C
→ -11, 6.1, 5, 7, -3, 13, 2318
O=C(Nc1ccc(-n2nncc2-c2ccco2)cc1)c1cc2ccccc2oc1=O
→ -30, 6.0, -4, -3, -6, -7, 20140*
Cc1cccc(-n2nnc3c(=O)n(CC(=O)Nc4cc(C)on4)cnc32)c1
→ -24, 6.4, 0, 2, -12, 0, 3968
Cc1ccc2c(c1)-c1ccccc1S(=O)(=O)N2
→ -25, 2.9, 9, 16, 3, 2, 9775
O=C(Nc1ccc(S(=O)(=O)N2CCCC2)cc1)c1ccccc1
→ -16, 4.0, -5, 2, 5, 1, ?
NC(=O)c1ccccc1OCC(=O)N1CCCC1c1ccc2c(c1)OCCCO2 (stereo not given)
→ -11, 2.0, 0, -2, ., 5, 6693
CC(=O)NCc1ccc(S(=O)(=O)NC(C)CCc2ccccc2)cc1 (stereo not given)
→ -23, 3.9, 1, 4, -15, 12, 5122
Cc1ccc(C)c(N2CCN(C(=O)c3cc4ccccc4oc3=O)CC2)c1
→ -13, -8.9, 9, 5, -12, -5, 5804
O=C(c1ccco1)C12CN3CN(CN(C3)C1)C2
→ 2, -3.9, 3, 14, -3, -10, 21201*
CC(=O)Nc1cc(C(=O)N2CCCC2)ccc1Sc1ccc(Cl)cc1
→ ., 5.1, 6, 0, -2, 7, 11198
O=C(CN1C(=O)COc2ccccc21)N(Cc1cccnc1)Cc1cccc(F)c1
→ -12, 4.7, 6, -4, 3, 17, 16903*
Nc1ccc(C(=O)NCc2ccccc2)cc1
→ 4, 0.8, 18, 5, 6, 2, 6471
COc1ccc(Oc2nc(-c3cccnc3)nc3ccccc23)cc1
→ -5, 17, -1, -4, 1, -10, 3764
O=C(COc1ncnc2cc([N+](=O)[O-])ccc12)NCCc1ccc(Cl)cc1
→ -1, -1.2, -3, 8, -1, -3, 4660
COc1ccc(CC(=O)Nc2ccc(S(=O)(=O)NCC3CCCO3)cc2)cc1 (stereo not given)
→ -10, 2.7, 15, 8, 5, -4, 7730
Fc1ccc(Nc2ccnc(C(F)(F)F)c2)cc1
→ -25, 2.3, 2, -3, -7, -6, 3698
COc1cccc(SCc2noc(C(=O)NC(C)C)c2C(=O)NC(C)C)c1
→ -11, 2.7, 3, 9, 5, 2, 2953
COc1cc(C(=O)N/C(=C/c2ccc(F)cc2)C(=O)NC(C(=O)O)c2ccccc2)cc(OC)c1OC (stereo not given)
→ -22, 0.2, 3, 5, -2, -7, 4192
CCN1CCN(CC(=O)Nc2ccc(C)c(Br)c2)CC1
→ -5, 2.1, 6, 7, 0, 1, 3952
Cn1c(CC(=O)Nc2ccccc2)nnc1SCC(=O)NC1CCCC1
→ -11, -2.8, -6, 0, 2, 1, 3568
CN(Cc1ccccc1)C(=O)COC(=O)c1ccc2c(c1)OCO2
→ -18, -7.5, 5, 6, -4, -2, 3691

Gathered by group, the entries above containing two or more sulfur atoms.
Sequence of screens – PrP UTR inh, Sa RN4220 lethal, Mtb hypoxia inh, Mtb hypoxia inh growth, BJeLR lethal, ugtP null kill, Autofluor counter
CCc1ccc(NC(=O)c2ccc(NC3=NC4CS(=O)(=O)CC4S3)cc2)cc1 (stereo not given)
→ -25, 2.2, -2, 1, -1, -2, 5714
Cc1ccc(C=NNC(=S)NC2CCS(=O)(=O)C2)cc1 (stereo not given)
→ ., 4.1, 2, 11, ., 0, .

Other records
Sequence of screens – PrP UTR inh, Sa RN4220 lethal, Mtb hypoxia inh, Mtb hypoxia inh growth, BJeLR lethal, ugtP null kill, Autofluor counter
COc1ccc(/C=C/C(=O)OCC(=O)c2ccc3c(c2)NC(=O)CO3)c(OC)c1
→ -10, 1.7, -8, 8, 3, -8, 3322
COc1ccc(C(=O)NC(=S)NC(C)C)cc1Br
→ -45, 2.7, 11, 3, 4, 70, 11536
COC(=O)/C=C/c1c(C)nc(NCc2ccccc2)nc1Cl
→ -24, 0.3, 9, 1, -9, -14, 5667
O=C(CNC(=O)c1ccccc1F)NN=Cc1cc(Br)ccc1OCc1ccccc1
→ ., -1.1, 1, 15, ., -7, .
COCC(C)NC(=O)Cn1c(SCc2ccccc2)nc2ccccc21 (stereo not given)
→ -17, 3.6, -5, 2, -2, 6, 3623
COc1ccc(OC)c(-n2c(SCC(=O)N3CCc4ccccc43)nc3c(c2=O)SCC3)c1
→ -65, -17, 13, 8, -18, -5, 5307
OC(c1ccccn1)(c1ccccn1)c1ccccn1
→ -38, 9.5, -1, 5, 9, 5, 7850
O=C(Nc1ccc(C(=O)N2CCN(c3ccccc3)CC2)cc1)C1=CSCCO1
→ -20, 1.6, 9, 12, -2, 3, 5699
CN1C(=O)CSc2ccc(C(=O)O)cc21
→ -10, 3.1, ., ., 2, 8, 6331
CNC(=O)CSc1nnnn1CCCOC
→ -19, 2.1, ., ., -3, 4, 2836
COc1ccccc1CNC(=O)c1cccc(C)c1[N+](=O)[O-]
→ 11, 4.0, 9, 10, 6, 8, 2531
COc1ccc(Br)cc1CN(C)C(C)C(=O)Nc1cccc(C(C)=O)c1 (stereo not given)
→ 2, 4.4, -2, 2, 3, 2, 2284
CC(C)c1cccc(C(C)C)c1NC(=O)COC(=O)C1CCC1
→ -2, 0.9, 1, 4, -13, 3, 5821
Cc1n[nH]c(C)c1N1C(=O)c2cccc3cc(Br)cc(c23)C1=O
→ -16, -1.1, -3, -4, -6, -5, 2480
COc1ccc(NC(=O)Nc2cccc3c2OC(CN(C)C(=O)NC(C)C)C(C)CN(C(C)CO)C3=O)cc1 (stereo not given)
→ ., 3.6, 3, 7, ., 3, .
CCOC(=O)c1nc(C)sc1-c1ccnn1S(=O)(=O)c1cccc(Cl)c1
→ -15, 5.1, 12, 4, 2, 5, 4250
COc1ccc(CCCc2nnc(SCc3nc4ccccc4c(=O)[nH]3)n2C)c(C)c1
→ -16, 3.0, -5, -7, 7, 5, 4357
CCn1c2ccc(F)cc2c2nnc(NN)nc21
→ -15, 7.6, 8, 6, 3, -5, 10462
O=C1C=C(O)c2c(O)cc(O)c(O)c2C1=O
→ -1, 48, ., ., -3, -10, 5311
COc1ccccc1CCNC(=O)C1CCC(=O)N(Cc2ccccc2OC)C1 (stereo not given)
→ -14, 0.7, 4, -2, -3, -3, 4569
COc1ccc(C(=O)CSc2nnc(-c3ccco3)n2CC2CCCO2)cc1 (stereo not given)
→ -21, 2.9, ., ., -12, 9, 4123
O=C(NC1CCCC1)C1CCCN1C(=O)Oc1ccccc1 (stereo not given)
→ -9, -0.6, 5, 5, 10, 0, 4129
CCOc1cc(N2CCOCC2)c(OCC)cc1NC(=O)CN1C(=O)NC2(CCCCC2C)C1=O (stereo not given)
→ -18, 1.9, -2, 0, ., -3, 6525
CCCc1nc2c(c(=O)c3ccccc3n2C)c(=O)n1-c1cc(C)cc(C)c1
→ -21, 5.1, 7, -1, -12, -12, 4103
